RN4220 kill = kills Staphylococcus aureus RN4220; AID 1259311; actives 0.33% (n = 330,000); inhibition, % (test concentration not listed); S. aureus RN4220 growth, OD600, 16 h;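 active means z-score of -3 or lower and OD600 up to 0.18 on both plates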;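 further: plate controls were untreated cells for no effect and reference antibiotic for full effect; stock transfer was 100 nL into about 80 µL; one replicate is shown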
Sa ugtP lethal = compounds lethal to S. aureus RN4220 ugtP deletion mutant; OD600 growth, 16 h; some inactives read as strong as hits; growth inhibition, % (concentration not given with the values); actives 0.54% (n = 330,000);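 active means z-score under -3 and OD600 up to 0.15 on both plates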;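 further: plate controls were untreated wells for no effect and antibiotic for full effect; wells of about 80 µL received 100 nL stock; the first replicate is given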
Mtb hypoxia rep = inhibitors of hypoxia-regulated fluorescent reporter in Mycobacterium tuberculosis; M. tuberculosis hypoxia-regulated fluorescent reporter, fluorescence; fluorescence inhibition, % (test concentration not listed); actives 0.1% (n = 300,000); AID 1159583;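 active means 35 to 45% if threefold the growth effect, above 45% if 1.5-fold the growth effect; inactive means the rest, general growth blockers included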;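 further: wells of about 50 µL received 100 nL stock; 0% = vehicle wells and 100% = reference inhibitor wells; whole bacteria with a GFP reporter of the hypoxia response; strong numbers were not always called active; many hits fall short of the cut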
BJeLR lethal = kills HRASV12-expressing BJeLR cells | BJeLR (HRASV12) viability, CellTiter-Glo ATP luminescence, 48 h; reference of the scale not given here | inhibition, % (concentration not given with the values) | actives 0.17% (n = 300,000) | AID 1554;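 active means replicate mean above 50%; inconclusive means above 50% but judged a plate artefact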;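 further: 50 nL library stock added to about 25 µL; numbers are from one replicate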
Bead autofluor = compound fluorescence in toxin protease inhibitor counterscreen. compound autofluorescence counterscreen, microsphere flow cytometry; stronger effect = higher value. fluorescence intensity (test concentration not listed). actives 3.1% (n = 360,000);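 active means at least 3 SD above the mean of all compounds, about 16000 in these data; inconclusive means too few beads counted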;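 further: 100 nL of 1 mM stock went into each well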
PrP 5UTR inh = suppresses PrP 5' UTR mRNA reporter expression; cell-based PrP 5' UTR mRNA reporter, plate reader; inhibition, % (concentration not given with the values); actives 0.35% (n = 340,000); AID 488862;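 active means every replicate at 50% or more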;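 further: 0 = median of the neutral control wells; tested in H4 reporter cells; numbers are from one replicate; inactives centre near -14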
Mtb hypoxia rep growth = recorded beside Mtb hypoxia rep, whose call it bears; growth inhibition, %; measured here: M. tuberculosis growth (absorbance);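 0% = vehicle and 100% = reference antibiotic; read after six days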
Numbers without * were called inactive; ? = inconclusive; · = not tested or not shown; & = joins results of further samples. Not a hit list. About 4% of those tested had a hit in this group.

Every second line gives: RN4220 kill	Sa ugtP lethal	Mtb hypoxia rep	Mtb hypoxia rep growth	BJeLR lethal	Bead autofluor	PrP 5UTR inh
CC1=CS/C(=C(/C#N)C(=O)NCc2ccco2)N1c1ccccc1
    5.8	-1	7	2	11	5891	34
Cc1cccc(N2CCN(C(=O)c3cn4ccccc4n3)CC2C)c1 (centres undefined)
    0.3	2	13	8	4	4471	-11
CCOc1ccc(CNC(=S)NN=Cc2ccncc2)cc1
    4.0	0	1	6	·	·	·
C#CCNC(=O)/C=C/c1ccc(C)cc1
    ·	·	·	·	3	3059	-35
Cc1ccc(C2CN(CCC(N)=O)C(=O)CO2)cc1 (centres undefined)
    3.0	2	20	6	·	4066	-14
Cc1ccc(C(=O)N2CCN(C(=O)c3ccc(C)cc3)C2)cc1
    -2.9	-1	9	1	0	4039	-15
COc1cccc(N/C(SCc2ccccc2C)=C(/C#N)C(=O)NCc2cccs2)c1
    1.0	8	2	2	-11	10799	-9
C=C[C@@](C)(O)CC[C@@H]1[C@@]2(C)CCCC(C)(C)[C@@H]2CC[C@@]1(C)O
    ·	·	·	·	0	4170	-19
CCOC(=O)Cn1c(C)c(Br)c(COC)c(C#N)c1=O
    3.0	11	7	-1	-8	4776	-22
CCCn1c(SC(C)C(=O)N2CCOCC2)nc2ccc(Br)cc2c1=O (centres undefined)
    3.4	10	-5	-5	-2	4572	-4
CC(C)[C@H](NC(=O)c1ccc(Br)cc1)C(=O)NC1CCCCC1
    3.2	6	·	·	·	11750	-25
Cc1ccc(Cl)cc1NC(=O)COC(=O)CC(C)(C)C
    1.4	3	22	21	11	4613	-7
O=C(Cn1cc([N+](=O)[O-])cn1)N1CCCc2ccccc21
    1.2	14	-1	0	-7	4156	-29
O=C(NCc1cccnc1)c1cn(-c2ccccc2)nc1-c1cccs1
    3.0	0	6	4	-8	7524	-30
COc1ccc(CCNC(=O)COc2cc(C)cc3oc(=O)cc(C)c23)cc1OC
    -0.9	-3	-2	13	2	5401	3
O=C(O)c1cccc(N2C(=O)c3cc([N+](=O)[O-])cc4cc([N+](=O)[O-])cc(c34)C2=O)c1
    -6.3	-3	·	·	13	3581	-9
O=C(NCCN1CCN(Cc2ccccc2)CC1)C1CC(=O)N(C2CCCC2)C1 (centres undefined)
    1.0	1	3	3	-2	5982	-8
CCn1c(SCC(N)=O)nc2sc3c(c2c1=O)CCN(C)C3
    1.6	10	0	-4	-1	·	-8
COc1ccc(C(=O)Nc2ccc(N3CCN(Cc4ccccc4)CC3)cc2)cc1
    2.8	0	-8	-5	-3	4152	-23
O=C(/C=C/c1cccc(Cl)c1)Nc1ccncc1
    -5.2	-4	5	6	-5	21112*	-33

4 of these compounds in a different format:
Molecule: CC(C)[C@H](NC(=O)c1ccc(Br)cc1)C(=O)NC1CCCCC1
  RN4220 kill = 3.2; Sa ugtP lethal = 6; Mtb hypoxia rep = ·; Mtb hypoxia rep growth = ·; BJeLR lethal = ·; Bead autofluor = 11750; PrP 5UTR inh = -25
Molecule: CC1=CS/C(=C(/C#N)C(=O)NCc2ccco2)N1c1ccccc1
  RN4220 kill = 5.8; Sa ugtP lethal = -1; Mtb hypoxia rep = 7; Mtb hypoxia rep growth = 2; BJeLR lethal = 11; Bead autofluor = 5891; PrP 5UTR inh = 34
Molecule: O=C(NCc1cccnc1)c1cn(-c2ccccc2)nc1-c1cccs1
  RN4220 kill = 3.0; Sa ugtP lethal = 0; Mtb hypoxia rep = 6; Mtb hypoxia rep growth = 4; BJeLR lethal = -8; Bead autofluor = 7524; PrP 5UTR inh = -30
Molecule: Cc1cccc(N2CCN(C(=O)c3cn4ccccc4n3)CC2C)c1 (centres undefined)
  RN4220 kill = 0.3; Sa ugtP lethal = 2; Mtb hypoxia rep = 13; Mtb hypoxia rep growth = 8; BJeLR lethal = 4; Bead autofluor = 4471; PrP 5UTR inh = -11

Next section
Every second line gives: RN4220 kill	Sa ugtP lethal	Mtb hypoxia rep	Mtb hypoxia rep growth	BJeLR lethal	Bead autofluor	PrP 5UTR inh
COc1cccc(OCC(=O)Nc2ccccc2C(N)=O)c1
    1.4	-4	1	5	1	3403	-94
COc1ccc(NC(=O)c2c(F)c(F)c(F)c(F)c2F)cc1Cl
    1.2	0	·	·	7	?	-9
O=c1c2ccccc2nc(CSc2ncnc3nc[nH]c23)n1-c1ccccc1
    3.5	5	9	5	-6	2927	-8
COc1ccccc1CNc1nc(C)c(C(C)=O)s1
    1.5	14	1	4	-2	5131	-36
CC(C)(C)OC(=O)C[C@H]1C/C=C\C[C@@H](CC(=O)NCCO)C(=O)N[C@H](Cc2ccccc2)COC1=O
    3.1	2	2	1	·	3192	-33
CCOC(=O)C(C(=O)OCC)C(C)(C)/C(C)=N\Nc1ccc([N+](=O)[O-])cc1[N+](=O)[O-]
    ·	·	·	·	8	10462	-26
O=C(NCCCNC(=O)NC1CCCCC1)NC1CCCCC1
    -1.5	2	3	8	5	·	·
Cc1cc(N2CCN(c3ccc(F)cc3)CC2)nc2cc(O)ccc12
    6.6	7	3	7	3	6143	14
CCOc1ccc(S(=O)(=O)N(CC(=O)O)c2ccccc2)cc1
    2.6	-3	0	2	4	9998	-10
O=C(NC1CCCCC1)C1CCCN(S(=O)(=O)c2cccc3cccnc23)C1 (centres undefined)
    2.3	7	2	2	2	3250	-15
N#Cc1ccc(N2CCCC2C(=O)O)c([N+](=O)[O-])c1 (centres undefined)
    1.7	4	13	6	2	3913	-28
CCCC(=O)c1cc(F)c(N2CCN(C(=O)OCC)CC2)cc1C
    10.0	-1	6	12	5	8786	-17
CCCn1c(C2CCCN2c2nc(-c3ccc(C)cc3)cs2)nc2ccccc21 (centres undefined)
    -7.8	-18	4	9	-5	4330	-6
O=C1/C(=C/c2ccccc2Cl)N2CCC1CC2
    4.0	2	8	8	14	4616	-13
CC(=O)NC1CC2CCCC(C1)N2CC(=O)Nc1ccccc1 (centres undefined)
    3.9	8	23	12	-10	3321	-4
CC1(C)Cc2c(cnn2-c2ccccc2)C(NC(=O)CCCN2CCCC2=O)C1 (centres undefined)
    1.6	2	1	0	1	5300	-17
Cc1ccc(NCCNc2ccc(C)cc2)cc1
    2.5	4	5	5	-5	4412	-12
COc1ccc(CCNC(=O)C(=O)NCc2ccccc2)cc1OC
    7.0	4	3	4	21	2852	-7
CCOC(=O)c1ccc(S(=O)(=O)N2CCN(CC(O)COc3ccc(C#N)cc3)CC2)cc1 (centres undefined)
    1.8	1	-3	0	14	2932	15
CCN(CC(=O)Nc1ccc(OC)cc1)C(=O)c1ccc(NS(=O)(=O)c2ccc(C(C)=O)cc2)cc1
    1.8	9	3	2	-3	?	-11

molecule	RN4220 kill	Sa ugtP lethal	Mtb hypoxia rep	Mtb hypoxia rep growth	BJeLR lethal	Bead autofluor	PrP 5UTR inh
COc1ccccc1NC(=O)CCSc1nnnn1C	5.1	7	2	2	-3	4180	-6
Cc1nn(Cc2c(F)c(F)c(F)c(F)c2F)c(C)c1NC(=O)c1nn(C)cc1[N+](=O)[O-]	-3.8	-9	-1	9	0	22913*	3
Cc1ccc(NC(=O)COC(=O)c2ccc(-n3cnnn3)cc2)c(Br)c1	0.8	-1	10	4	·	·	·
O=C(CCn1c(=O)oc2ccccc21)N1CCN(c2ccccc2Cl)CC1	4.7	12	16	3	-3	3838	-61
Cc1cc(NC(=O)CC23CC4CC(C2)CC(CC(=O)Nc2cc(C)on2)(C4)C3)no1	2.7	-5	4	15	-2	4089	0
O=C(/C=C/c1ccc2c(c1)OCO2)NCCSCc1ccc(Cl)cc1Cl	-7.4	1	3	4	1	2806	-31
COc1ccc(C)cc1NS(=O)(=O)c1ccc2c(c1)N(C(C)=O)CCO2	2.9	-7	7	7	15	5607	-10
CCc1ccc(NC(=O)C2CCN(S(=O)(=O)c3ccc4c(c3)CC(C)N4C(C)=O)CC2)cc1 (centres undefined)	3.3	9	8	3	-1	5898	-22
CCN1C(=O)C2C(c3ccc(-c4ccc(F)cc4)cc3)N[C@@](CC(C)C)(C(=O)OC)C2C1=O (some centres undefined)	-5.4	25	14	13	·	·	·
O=C(COC(=O)c1ccco1)Nc1ccc(N2CCOCC2)cc1	3.8	12	4	-3	·	3919	4
O=C(Cc1cccs1)Nc1ccc(-c2nnc(-c3ccco3)o2)cc1	4.3	-2	8	2	-1	1978	-34
Cc1c(C(=O)N/N=C/C(C)C)[nH]c2ccc([N+](=O)[O-])cc12	·	·	·	·	5	3412	-17
COCCCn1c(SCC(=O)NC2CCCC2)nnc1-c1ccccc1	1.1	0	5	1	-14	4943	-19
Cc1ccccc1-c1nc2c(s1)CCc1onc(-c3ccc(Cl)cc3)c1-2	2.4	1	15	5	6	4444	-17
CCC(C)(C)NC(=O)C(c1ccccn1)N(C(=O)c1csnn1)c1ccc(C)c(C)c1 (centres undefined)	-3.6	-4	5	4	8	3322	-6
NS(=O)(=O)c1ccc(CCNC(=O)COC(=O)CCc2c[nH]c3ccccc23)cc1	4.7	8	11	1	·	3007	-20
C[C@H](CCC(=O)O)[C@H]1CC[C@H]2[C@@H]3[C@H](O)C[C@@H]4C[C@H](O)CC[C@]4(C)[C@H]3C[C@H](O)[C@]12C	6.8	2	·	·	11&-3&0	6374&5382&5657	-18&-13&-2
COCCNS(=O)(=O)c1cccc2cccnc12	0.0	-14	·	·	3	4932	-18
Cn1c(C(C#N)/C(=N\S(=O)(=O)c2cccs2)c2ccccc2)nc2ccccc21 (centres undefined)	·	·	·	·	-3	4248	-6
O=C(O)C1CCc2nc(NCc3ccccc3)nc(NCc3ccccc3)c2C1 (centres undefined)	1.0	-3	2	14	·	3823	-10

molecule	RN4220 kill	Sa ugtP lethal	Mtb hypoxia rep	Mtb hypoxia rep growth	BJeLR lethal	Bead autofluor	PrP 5UTR inh
COc1ccc(/C=C/C(=O)c2ccc(C(=O)/C=C/c3ccc(OC)c(OC)c3)cc2)cc1OC	0.4	-4	-2	0	48	4164	-11
CCN(CC)S(=O)(=O)C1CCS(=O)(=O)C1 (centres undefined)	5.7	1	8	6	-12	9037	-11
Cc1cccc(C(=O)N2CCC(c3nc4ccccc4s3)CC2)c1	2.9	6	8	6	8	4209	-10
Cc1c(NC(=O)COC(=O)c2ccc(Cl)nc2)c(=O)n(-c2ccccc2)n1C	-1.9	-1	1	-2	·	2863	-7
CCC(c1nnnn1C1CCCCC1)N1CCN(C2CCCC2)CC1 (centres undefined)	2.2	-2	·	·	1	4503	-24
Cc1cccc(C)c1NC(=O)CNC(=O)Cn1nc(C)c(C)c(C#N)c1=O	3.5	5	0	-3	-2	·	-30
